MgrA-DNA mod = S. aureus MgrA-DNA binding modulation; 0.13% of 84,000 active; fluorescence polarization; inhibition, %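 (about 10 µg/mL by stock and volumes)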; AID 602314;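 active means above 50% in either of two replicates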;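 further: 0% = protein plus DNA without compound and 100% = DNA alone without protein; higher means less MgrA bound to DNA so lower polarization; one replicate is shown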
S aureus helic = blocks Staphylococcus aureus DNA helicase | purified S. aureus helicase, fluorescence unwinding assay; about half of the hits fall short of the stated cut | 0.05% of 120,000 active | inhibition, %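 (tested at about 80 µM)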;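 active means both duplicates at 50% or more, or one of them with a favoured structure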;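 further: 0% = mean of negative control wells and 100% = mean of positive control wells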
* hit, by the source's call; / = not tested or not shown.

SMILES	MgrA-DNA mod	S aureus helic
CCOc1ccccc1NC(=O)NC1CC2CCCC(C1)N2Cc1nnnn1CCc1ccccc1 (configuration not stated)	-0.5	8
CCOC(=O)c1ccc(N=c2sc(C(=O)OC)cc(=O)n2C2CC2)cc1	-1.1	13
CCCCCCC1C(C#N)=C(N)SC(N)=C1C#N	/	-16
CN1CCCCCC1=Nc1cccc(F)c1	-2.0	-14
CSc1nc(C)c2cc(C)ccc2n1	-0.2	1
CNC(=S)N(C)/N=C1/C(=O)N(Cc2c(Cl)cccc2Cl)c2ccccc21	1.1	-13
CC1=CC(=O)C(N(C)c2ccccc2)=CC1=O	15	-5
O=C(CCc1n[nH]c(=O)[nH]c1=O)Nc1cccc(Br)c1	/	-18
CC(C)C(C(=O)O)N1C(=O)c2ccc(C(=O)O)cc2C1=O (configuration not stated)	/	-34
Cc1ccc(Cn2cccc(NC(=O)c3ccncc3)c2=O)cc1	-1.5	8
CCCN1C(=O)c2cc(C(=O)NCCc3cccc(C)c3)ccc2C1O (configuration not stated)	/	-16
CC1CCN(c2nc3nonc3nc2Nc2ccc(F)cc2)CC1	4.3	5
CCN(CC)c1ncnc2sc(C(=O)N(C)C3CCCCC3)c(C)c12	1.8	4
O=C(NNc1nccc(C(F)(F)F)n1)Nc1cccc(Cl)c1	/	-19
Cn1nc(CC(=O)Nc2cccc3ncccc23)c2ccccc2c1=O	-0.6	21

Given with values under each structure: 3 of the compounds above
Results follow in this order: MgrA-DNA mod, S aureus helic
- CC1=CC(=O)C(N(C)c2ccccc2)=CC1=O
→ 15, -5
- O=C(CCc1n[nH]c(=O)[nH]c1=O)Nc1cccc(Br)c1
→ /, -18
- CC(C)C(C(=O)O)N1C(=O)c2ccc(C(=O)O)cc2C1=O (configuration not stated)
→ /, -34

Further results.
SMILES	MgrA-DNA mod	S aureus helic
Nc1nc2c(C(=O)N3CCOCC3)nnn2c2ccccc12	0.3	/
CCOc1ccc(NC(=O)CCNC(=O)Cn2ccc3ccccc3c2=O)cc1	/	-37
Cc1ccccc1COc1ncnc2cc(Cl)ccc12	-1.9	/
Clc1cccc(Cl)c1COc1cccc(N2CCOCC2)c1	0.3	/
Cn1ccnc1C(=O)c1cc(SCC(=O)N2CCOCC2)nc2ccccc12	/	-19
CC1CCCCN1C(=O)CCS(=O)(=O)c1ccc2c(c1)n(C)c(=O)c(=O)n2C (configuration not stated)	-3.2	10
O=C1C(=O)N(c2cccnc2)C(c2ccccc2)/C1=C(/O)c1ccccc1 (configuration not stated)	0.3	-2
O=C(O)c1ccccc1-c1ccccc1C(=O)NCCN1CCNC1=O	/	14
Oc1ccccc1C=Nc1cccc2ccccc12	-3.2	12
CCOc1ccc(NC(=O)CSc2c[nH]c3ccccc23)cc1	/	-2
O=C(Cc1ccc(NC2=NC3CS(=O)(=O)CC3S2)cc1)Nc1ccc(F)c(Cl)c1 (configuration not stated)	/	3
Cc1nc(Nc2nc3ccccc3o2)ncc1C(=O)Nc1ccccc1	/	24
Cc1ccc(NC(=O)c2ccc3noc(-c4ccccc4)c3c2)cc1F	/	6
COc1ccc(OC)c2c(=O)cc(C(=O)O)[nH]c12	-1.2	/
CC1CCCCN1S(=O)(=O)c1cccc(C(=O)O)c1 (configuration not stated)	-2.1	4

Record cards, as listed above. Order of screens: MgrA-DNA mod	S aureus helic
Record of CC1CCCCN1C(=O)CCS(=O)(=O)c1ccc2c(c1)n(C)c(=O)c(=O)n2C (configuration not stated) → -3.2	10
Record of COc1ccc(OC)c2c(=O)cc(C(=O)O)[nH]c12 → -1.2	/
Record of Cc1nc(Nc2nc3ccccc3o2)ncc1C(=O)Nc1ccccc1 → /	24

Going on with the list.
SMILES	MgrA-DNA mod	S aureus helic
O=C(Nc1ccccc1F)NC1CCCc2ccccc21 (configuration not stated)	-0.3	/
CC(=NCCc1ccc(Cl)cc1)c1ccccc1O	0.8	/
O=C(Cn1nnc(-c2cccc(C(F)(F)F)c2)n1)Nc1ccc(F)cc1	-2.2	/
CCOc1ccc(C(=O)c2[nH]c(=O)c3ccccc3c2O)cc1	/	-2
N#CC(CC(=O)N1CCCCCC1)C(=O)Nc1ccc(Cl)cc1 (configuration not stated)	/	1
CN1CCN(c2ccc(NC(=O)Cc3ccccc3)cc2)CC1	-1.1	4
COc1ccc(-c2noc(N3CCc4ccccc43)n2)cc1	9.9	6
O=C1c2ccccc2C(=O)N1CNc1ccccc1	-1.3	2
COc1ccc(-n2cc(C(=O)NCCCN3CCCCC3)c3ccccc3c2=O)cc1	/	-8
O=C(/C=N/O)Nc1cc(C(F)(F)F)cc(C(F)(F)F)c1	-1.4	/
COc1ccc(S(=O)(=O)N2CC=C(c3c(C)n(CC(=O)N4CCCC4)c4ccccc34)CC2)cc1OC	/	9
Clc1cccc(Cl)c1NC1=NCCC1	/	17
CNc1nn(-c2cccc(Cl)c2)nc1N	/	5
CCSc1nnc2c(n1)OC(/C(C)=C/c1ccccc1)Nc1ccccc1-2 (configuration not stated)	-0.8	/
Cc1noc(C)c1COc1ccc(C(=O)NCC2COc3ccccc3O2)cc1 (configuration not stated)	/	7
O=C(Cc1noc2ccccc12)NCCOC12CC3CC(CC(C3)C1)C2	0.6	-10
CCc1ccc(NC(=O)N2CCCC(CN3CCc4ccccc4C3)C2)cc1 (configuration not stated)	/	22
CC(C)N(Cc1ccccc1)S(=O)(=O)c1ccc2c(c1)OCCO2	/	-10
CC(C)COC(=O)c1nnsc1NC(=O)Nc1ccccc1	2.6	13
Cc1cc(NC(=O)CSc2nc(-c3ccco3)nc3c2c(=O)n(C)c(=O)n3C)no1	/	16
c1csc(-c2nc(-n3ccnc3)c3ccccc3n2)c1	/	8
CC(C)(C)c1cc(C(=O)Nc2ccc(Cl)cc2)n(Cc2ccccc2)n1	1.6	/
CCSc1cnn(C)c(=O)c1SCC	-0.1	17
CN(C)S(=O)(=O)c1cc(S(=O)(=O)N(C)C)c(Cl)s1	3.2	/
COc1ccc(-c2noc(CCC(=O)O)n2)cc1OC	/	-2
Cc1ccccc1CC1SC(=Nc2ccccc2)NC1=O (configuration not stated)	-2.1	/
CC(Sc1nnc(COc2ccccc2F)n1-c1ccccc1)C(=O)NC(N)=O (configuration not stated)	/	-5
COC(=O)c1cn(CC(=O)N2c3ccccc3CC2C)c2ccccc12 (configuration not stated)	-0.4	5
Oc1ccc2ccccc2c1CN1CCN(C/C=C/c2ccccc2)CC1	-0.3	/
CC(C)N1C(=O)c2ccccc2C1C(=O)NCCc1ccccc1 (configuration not stated)	/	-25
COC(=O)c1c(F)c(F)c(Oc2ccc(NC(C)=O)cc2)c(F)c1N1CCCCC1	/	2
Cn1cc(SCC(=O)NC2CCCCC2)c2ccccc21	/	-15
CC1Cc2ccccc2N1S(=O)(=O)c1ccc2[nH]c(=O)c(=O)[nH]c2c1 (configuration not stated)	-3.5	-1
CC1(C)CC(NC(=O)COc2ccc(C#N)cc2)CC(C)(C)N1	-0.1	6
O=C1ON(c2ccccc2)C(=O)/C1=C/c1ccccc1	2.9	/
CCOc1ccccc1OC(=O)Cc1cc(OC)c(OC)c(OC)c1	/	-16
OC(c1ccc2c(c1)OCO2)c1cccs1 (configuration not stated)	-6.4	1
CCN1CCN(C(=O)C2CCN(S(=O)(=O)c3ccc4c(c3)nc(C)n4C3CCCC3)CC2)CC1	3.7	8
COC(=O)c1ccc2c(c1)sc1nc(-c3ccc(Cl)cc3)cn12	0.8	12
COCCn1ccc2c(OCC(=O)Nc3cccc(NC(C)=O)c3)cccc2c1=O	/	11
O=C1CC(=O)c2c1cccc2[N+](=O)[O-]	35	/
CC(=O)N1C2=C(CCCC2)C(=O)NC12CCCCC2	0.3	12
Nc1cccc2c(-c3ccccc3)ccnc12	/	24
Cc1nn(-c2ccccc2)c2sc(C(=O)NCC3CCCO3)cc12 (configuration not stated)	/	32
CCOc1ccc(NC(=O)NCCCn2c(C)nc3cc(C)c(C)cc32)cc1	/	18
CCSc1nc2c(c(=O)n1CC)SC(C)C2 (configuration not stated)	/	8
Cc1cc2nc(Oc3ccc(S(=O)(=O)N4CCOCC4)cc3)c3ccccc3n2n1	/	4
Cc1ccccc1Cn1c(=N)n(CCO)c2ccccc21	/	-11
Cc1cc(OCC(=O)OC(C)C(N)=O)c(C(C)C)cc1Cl (configuration not stated)	/	14
S=c1[nH]c2ccc(Cl)cc2[nH]1	0.5	16
CCOC(=O)c1c(NC(=O)c2ccco2)sc2c1CC(C)(C)NC2(C)C	/	18
COc1ccc(Cn2nnc3c(C)nnc(N4CCOCC4)c32)cc1	/	25
COc1ccc(CNC(=O)c2cccc(N3CCCC3=O)c2)cc1	/	-39
Cc1ccc(CN2CCc3[nH]c(=O)[nH]c(=O)c3C2)cc1	0.8	7
N#Cc1cnc(N2CCCCC2)[nH]c1=O	-3.2	5
Cc1ccc(-n2nnc3c(=O)n(CC(=O)N4CC(C)OC(C)C4)cnc32)cc1Cl (configuration not stated)	/	4
Cc1cc(NCc2ccccc2)c2nncn2n1	-0.7	20
COc1cc(Br)cc(C=Nc2cc(C)on2)c1O	6.6	19
CCN(C(=O)c1ccco1)c1nnc(Cn2nnc3ccccc32)s1	0.0	5
COc1ccccc1-c1cc2nc(C)cc(C)n2n1	-0.8	/

Molecules from the list above that have a furan ring, fused or not:
SMILES	MgrA-DNA mod	S aureus helic
Cc1cc(NC(=O)CSc2nc(-c3ccco3)nc3c2c(=O)n(C)c(=O)n3C)no1	/	16
CCOC(=O)c1c(NC(=O)c2ccco2)sc2c1CC(C)(C)NC2(C)C	/	18
CCN(C(=O)c1ccco1)c1nnc(Cn2nnc3ccccc32)s1	0.0	5

Remaining list, next part:
SMILES	MgrA-DNA mod	S aureus helic
CC(C)CCNC(=O)Cc1cccs1	-2.4	17
O=C(Cc1csc(Nc2nc(=S)[nH]c3ccccc23)n1)N1CCN(c2cccc(Cl)c2)CC1	0.4	10
COc1cc(OC)nc(NC(=O)COC(=O)c2ccc(S(=O)(=O)Nc3ccc(C)cc3)cc2)n1	/	-6
NC(=O)C1CCN(CC(=O)NC(c2ccccc2)c2ccccc2)CC1	/	-9
Cn1ncc(Br)c1C(=O)O	-2.1	-2
CNc1cnn(C23CC4CC(CC(CC(=O)O)(C4)C2)C3)c(=O)c1Cl	/	-18
O=C1c2ccccc2C(=O)N1CNc1ccccc1C1CC1	0.5	11
CC1(C)Cc2ccccc2C(NN=C2CCCCC2)=N1	0.0	-4
Cc1cc(C)c(C(=O)NCCNc2ccc(C(F)(F)F)cc2[N+](=O)[O-])c(C)c1	2.7	/
COCCn1cc(C(=O)c2ccccc2O)cc(C#N)c1=O	/	-6
O=C(O)c1ccc2c(c1)sc1nc(-c3ccc(F)cc3)cn12	/	-8
COc1cccc(-c2nc3cc(C)ccc3o2)c1	3.3	8
Nc1snnc1-c1ccc(Cl)cc1	-3.0	/
CC(NC(=O)COc1cccc(Cl)c1)c1ccccc1 (configuration not stated)	/	7
O=S(=O)(Nc1ccc(Cl)cc1)c1ccccc1	-0.2	/
CC(C)Cn1c(O)c(C2=c3ccccc3=NC2=O)c2ccccc21	-1.6	-19
Cc1ccc2[nH]c(=O)c(CNCCCN(C)C)cc2c1	6.0	2
COC(=O)CSc1n[nH]c(C)n1	-0.1	11
N#CC1=C2SCCN2C(=O)C(C#N)C12CCCCC2 (configuration not stated)	-1.1	3

3 entries drawn at random from those above:
SMILES	MgrA-DNA mod	S aureus helic
CCCCCCC1C(C#N)=C(N)SC(N)=C1C#N	/	-16
COc1ccc(Cn2nnc3c(C)nnc(N4CCOCC4)c32)cc1	/	25
O=S(=O)(Nc1ccc(Cl)cc1)c1ccccc1	-0.2	/

High-throughput results from PubChem.

These rows are one share of the data; rates above refer to the full screens.
